Screening data deposited in PubChem BioAssay by National Center for Advancing Translational Sciences (NCATS).
RE007 growth inh = qHTS Assay for Inhibitors of the HIV-1 protein Vpr; AID 651644, 2012; actives 0.21% (n = 360,000); S. pombe RE007 Vpr strain, BacTiter-Glo ATP luminescence, 24 h; control for the full effect not named in the record; Potency, µM (doses to about 92.2 µM), without a hit: at the top dose activity change, negative = less growth; active = well fitted falling curve with a large enough effect; inconclusive = small, poorly fitted or top-dose-only effect; inactive = no such curve, though single readings can be large or run the other way;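 also: % is scaled to controls: 0 for no effect and ±100 for the full control effect; nearly all actives have a fitted effect of over 50% in size; the assay follows cell death caused by Vpr and the record does not say whether a fall means rescue or toxicity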
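Fission yeast strain RE007, carrying one chromosomally integrated HIV-1 vpr copy, was seeded at OD 0.01 in PMG+AL medium with 23 nL pinned compound. After 24 h at 30 °C and 99% humidity, viability was read by BacTiter-Glo luminescence.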
Cruzain inh Det = qHTS Assay for Promiscuous and Specific Inhibitors of Cruzain (with detergent). purified cruzain, Z-FR-AMC fluorescence, 0.01% Triton. Cruzipain (Trypanosoma cruzi), P25779. Potency, µM, for the others: max response, negative = inhibition, hits mostly inhibitors. actives 0.43% (n = 200,000); active = well fitted curve in the direction sought with a large enough effect; inconclusive = small, poorly fitted or top-dose-only effect, or another doubt; inactive = no such curve, though single readings can be large; an effect the other way counts as inactive or inconclusive;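 also: plate controls were neutral wells for no effect and buffer without enzyme for full effect; nearly all actives have a fitted effect of over 40% in size; top concentration of the series not given in the record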
Target sequence (P25779 123-467 limits assumed): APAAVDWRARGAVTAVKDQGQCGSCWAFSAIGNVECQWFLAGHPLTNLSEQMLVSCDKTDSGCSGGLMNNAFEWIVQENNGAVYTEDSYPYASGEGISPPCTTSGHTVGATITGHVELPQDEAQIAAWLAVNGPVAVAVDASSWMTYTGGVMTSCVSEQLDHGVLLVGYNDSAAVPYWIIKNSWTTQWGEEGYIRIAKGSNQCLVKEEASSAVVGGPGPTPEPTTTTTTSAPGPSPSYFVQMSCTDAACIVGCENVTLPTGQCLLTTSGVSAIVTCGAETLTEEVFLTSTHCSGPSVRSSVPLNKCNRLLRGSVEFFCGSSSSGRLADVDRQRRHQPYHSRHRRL
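Read-out: AMC fluorescence (360 nm excitation, 450 nm emission), four reads over 2 min, first-to-third difference used. Conditions: cruzain 1.5 nM, Z-FR-AMC 2 uM, pH 5.5 acetate, 5 mM DTT, 0.01% Triton X-100.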
SARS PLpro yeast = qHTS of Yeast-based Assay for SARS-CoV PLP | actives 0.19% (n = 330,000) | Potency, µM (doses to about 32.9 µM), for inactives: at the highest dose activity, positive = growth rescue | S. cerevisiae expressing SARS-CoV PLpro, growth rescue; control for the full effect not named in the record; also: 0% is about no effect; nearly all actives have a fitted effect of over 55% in size; growth read by luminescence after 48 h
StopGo reporter = High Throughput Screening for Foot and Mouth Disease Virus Antivirals | human cells with a luciferase reporter of 2A StopGo recoding; control for the full effect not named in the record | Potency, µM (titrated, usually from 57.9 µM), for the others: at the top dose signal change, negative = less light | AID 1159524, 2015 | actives 1.2% (n = 410,000); active = well fitted falling curve with a large enough effect; inconclusive = small, poorly fitted or top-dose-only effect; inactive = no such curve, though single readings can be large or run the other way; tested in HEK293T cells; also: % is scaled to controls: 0 for no effect and ±100 for the full control effect; nearly all actives have a fitted effect of over 45% in size; luciferase light after 4 h
Cruzain inh noDet = qHTS Assay for Promiscuous and Specific Inhibitors of Cruzain (without detergent); Cruzipain (Trypanosoma cruzi), P25779; purified cruzain, Z-FR-AMC fluorescence, no detergent; Potency, µM, inactives show max response, negative = inhibition, usual class: inhibitors; actives 2.3% (n = 200,000); active = well fitted curve in the direction sought with a large enough effect; inconclusive = small, poorly fitted or top-dose-only effect, or another doubt; inactive = no such curve, though single readings can be large; an effect the other way counts as inactive or inconclusive;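 also: plate controls were enzyme without inhibitor for no effect and buffer without enzyme for full effect; nearly all actives have a fitted effect of over 40% in size; top concentration of the series not given in the record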
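Purified cruzain at 1.5 nM, pre-incubated 15 min with compound at room temperature in 100 mM sodium acetate pH 5.5, 5 mM DTT, 0.00005% Triton X-100. Reaction started with 2 uM Z-FR-AMC; AMC fluorescence increase over 60 s gives rate.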
Lassa entry inh = qHTS for Inhibitors of binding or entry into cells for Lassa Virus; Lassa virus pseudotype entry inhibition, cell reporter; control for the full effect not named in the record; Potency, µM (highest dose often 37.9 µM), for the others: top-dose activity change, negative = inhibition, actives largely listed as inhibitors; actives 1.2% (n = 300,000); AID 540256, 2011; active means well fitted inhibition curve with a large enough effect; inconclusive means small, poorly fitted or top-dose-only effect, or effect the other way; inactive means flat fitted curve, though single readings scatter; tested in HEK293 cells; also: % is scaled to controls: 0 for no effect and ±100 for the full control effect; nearly all actives have a fitted effect of over 50% in size; luciferase read-out
NS1 function inh = qHTS Assay for Inhibitors of Influenza NS1 Protein Function | Potency, µM (titrated, usually from 46.1 µM), for the others: at the highest dose activity, positive = more growth | S. cerevisiae slowed by influenza A NS1, growth recovery by OD600 | actives 0.4% (n = 270,000); also: actives are rising curves; nearly all actives have a fitted effect of over 50% in size
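In this qHTS, NS1 from influenza A is expressed in budding yeast, where it slows growth. Cells are switched from glucose to 2% galactose medium (pH 6.0, -URA), treated with compound, and growth recovery is read at OD600.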
MARV entry inh = qHTS for inhibitors of binding or entry into cells for Marburg Virus; Marburg virus pseudotyped entry inhibition, cell reporter; control for the full effect not named in the record; about a third of the inactives were read at about 46 µM; Potency, µM (highest dose often 37.8 µM), inactives show at the highest dose activity change, negative = inhibition, most hits filed as inhibitors; actives 1.8% (n = 300,000); active = well fitted inhibition curve with a large enough effect; inconclusive = small, poorly fitted or top-dose-only effect, or effect the other way; inactive = flat fitted curve, though single readings scatter; tested in HEK293 cells; about a fifth of its hits are not listed in these tables; also: % is scaled to controls: 0 for no effect and ±100 for the full control effect; luciferase read-out
The depositor's hits bear a star; ? = inconclusive; / = no result given; & = joins results of further samples; [ ] = remark or other dose. Unless noted, calls follow the shape of the dose curve; as a rule, active means well fitted rising curve with a large enough effect; inconclusive means small, poorly fitted or top-dose-only effect; inactive means no such curve, though single readings can be large or run the other way. Potency is read from the fitted curve at half-maximal effect.

SMILES	RE007 growth inh	Cruzain inh Det	SARS PLpro yeast	StopGo reporter	Cruzain inh noDet	Lassa entry inh	NS1 function inh	MARV entry inh
O=C(Nc1cc(S(=O)(=O)N2CCOCC2)ccc1Cl)c1ccc(=O)[nH]c1	-3.9%	/	-2.2%	-5.8%	/	-3.2%	/	15.2%[46.1 µM]
O=C1CN(C(=O)COc2ccc(Br)cc2)c2ccccc2N1	-8.6%	/	-1.1%	-6.0%	/	/	-1.2%	4.0%[46.1 µM]
CN(C)S(=O)(=O)c1ccc2c(c1)N(CC(=O)N1CCN(c3ccccc3F)CC1)CCS2	/	-4.3%	/	-19.5%	13.3%	-17.4%[46.1 µM]	/	/
O=C(Cc1ccc(Br)cc1)NCCc1ccc(Cl)cc1Cl	-3.6%	-6.1%	-41.5%	-20.1%	7.1%	-15.9%	-4.6%	-25.4%
S=C(c1c[nH]c2ccccc12)N1CCOCC1	-8.9%	/	0.3%	-13.0%	/	?	-1.7%	-6.6%[46.1 µM]
Cc1cc(C)c(NC(=O)/C(C#N)=C/c2ccc(OCc3ccc(F)cc3)cc2)c(C)c1	-11.2%	-3.5%	3.5%	-10.3%	-20.2%	8.4%	-48.3%	?
COc1ccc(N2CCN(C(=O)CSc3nc4nc(C)cc(C)n4n3)CC2)cc1	-15.8%	/	-1.3%	-13.1%	/	5.7%	/	20.7%
CN(C1CCCCC1)C(CNS(=O)(=O)c1ccc(Cl)cc1)c1ccccc1 (stereo not given)	3.8%	/	-0.3%	13.4%	/	/	2.8%	/
CCNCCNc1ccc([N+](=O)[O-])c2cccnc12	-1.4%	/	0.6%	-20.5%	/	14.2%[46.1 µM]	3.4%	?
CC(C)Oc1ccc(C(=O)O)c(C(=O)O)c1	-2.2%	4.8%	-2.9%	5.3%	-9.0%	0.4%	-10.2%	2.7%
c1ccc(Cn2c(CNc3nc4ccccc4n3CCN3CCCCC3)nc3ccccc32)cc1	-21.0%	1.1%	3.4%	?	14.8%	?	-8.6%	?
COc1ccc(/C=c2\s/c(=C/C(=O)c3ccc(C)cc3)[nH]c2=O)cc1OC	-7.1%	-8.9%	25.5%	2.3%	-12.4%	?	0.7%	2.3%
Cc1cccc(-c2c3c(=O)n(C)c(=O)n(C)c3cn2-c2ccc(O)cc2)c1	4.9%	/	/	23.6%	/	-5.7%	/	-10.5%
CC(NCc1nc2ccccc2n1C)C12CC3CC(CC(C3)C1)C2 (stereo not given)	-12.5%	/	6.2%	?	/	?	-0.5%	11.2µM*
CC(=O)N1CN2CN(C1)CN(C(C)=O)C2	0.3%	0.7%	21.2%	-22.7%	-5.5%	7.3%	-0.8%	-6.7%
COC(=O)c1ccc(C[n+]2ccccc2)cc1	-1.9%	/	-6.6%	-13.3%	/	?	9.2%	?
O=C(OCC(=O)c1c[nH]c2ccccc12)c1ccco1	-10.5%	-2.7%	-6.8%	13.5%	5.1%	14.2%	-10.2%	?
Cc1cccc(Oc2coc3cc(OC(=O)c4cncc(Br)c4)ccc3c2=O)c1	14.5%	2.0%	-1.5%	32.2%[activator]	?	21.4%	-32.7%	?
CCOC(=O)C1CCCN(CCC(=O)Nc2ccccc2C)C1 (stereo not given)	-3.7%	/	-0.6%	-7.5%	/	/	6.4%	/
Cc1ccc(NC(=O)C2CCCN(S(=O)(=O)c3cnc[nH]3)C2)c(Br)c1 (stereo not given)	7.8%	-2.3%	-0.5%	47.8%[activator]	-1.3%	/	2µM*	-3.5%
COC(=O)CSc1n[nH]c(=S)s1	-20.9%	-6.5%	8.8%	-21.7%	-5.9%	1.1%	-11.7%	-2.1%
COc1cc(-c2nnn(CC(=O)Nc3ccc(OC(F)(F)F)cc3)n2)cc(OC)c1OC	/	-12.0%	/	-12.4%	?	-1.9%[46.1 µM]	/	-29.6%[46.1 µM]
CNC(=O)c1c(C)noc1C	1.3%	/	-0.9%	-8.7%	/	-5.1%	/	-1.6%[46.1 µM]
CCN(CC)C(=O)CN1C(=O)c2cccc3cccc(c23)C1=O	18.8%	/	1.2%	-11.8%	/	9.1%	16.7%	-0.9%[46.1 µM]
C=CCn1c(C(CCC(C)C)CC(C)(C)O)n[nH]c1=S (stereo not given)	2.7%	1.0%	-6.7%	-25.8%	9.0%	2.4%	-13.9%	-9.8%
CC(=O)NC1C(OCc2ccccc2)OC(COC(C)=O)C(OC(C)=O)C1OC(C)=O (stereo not given)	12.8%	-2.1%	0.9%	73.7%[activator]	-5.6%	0.9%	4.6%	-18.0%
Cc1ccc(C)c(-n2c(CNC(=O)c3ccco3)nnc2SCC(=O)Nc2nnc(C)s2)c1	1.3%	-0.1%	-2.9%	-12.6%	0.8%	/	-7.0%	2.1%
Cc1ccccc1Sc1ncnc2onc(C)c12	-29.2%	-4.0%	-6.1%	?	3.8%	?	-0.3%	-9.5%
CCOC(=O)Nc1ccc2c(COC(=O)CN(C)S(=O)(=O)c3ccc(C)cc3)cc(=O)oc2c1	1.9%	/	/	8.9%	/	0.4%	/	3.2%
CCCCN(C(=O)c1ccccc1F)c1c(N)n(CCC)c(=O)[nH]c1=O	13.1%	/	16.9%	3.2%	/	16.1%	21.5%	9.6%[46.1 µM]
Cc1ccc(NC(=O)N2CCC(NC(=O)c3ccco3)CC2)cc1	5.9%	/	13.0%	7.9%	/	3.5%[46.1 µM]	19.5%	0.1%[46.1 µM]
Cc1cc(C)cc(NC(=O)C2CCCN2S(=O)(=O)c2cccc3cccnc23)c1 (stereo not given)	-8.2%	/	-3.1%	-12.3%	/	/	17.6%	/
COc1cccc(C2=CC(c3ccccc3F)n3c(nc4ccccc43)N2)c1 (stereo not given)	/	-6.7%	/	-2.6%	-1.6%	?	/	/
NC(=S)NNC(=O)c1ccccc1Cl	6.8%	/	-0.1%	-11.3%	/	/	0.7%	/
CCOc1ccc(CCNC(=O)NCc2noc3ccc(C)cc23)cc1	/	-2.8%	/	5.1%	-4.3%	-14.6%[46.1 µM]	/	/
CC1(C)Cc2c(C#N)c(SCc3nc4ccccc4[nH]3)nc(N3CCOCC3)c2CO1	0.5%	-14.2%	-0.4%	-27.1%	12.2%	-24.0%	2.3%	-26.5%&-26.5%
CCOC(=O)c1ccc(NC(=O)c2csc3c2CCCCC3)cc1	/	-10.2%	/	16.6%	-20.1%	/	/	?
Cc1nnc2n(Cc3ccccc3)c(=O)c3c4c(sc3n12)COC(C(C)C)C4 (stereo not given)	1.4%	-10.6%	1.7%	?	?	?	11.7%	16.7%
CCc1nc2n(n1)C(O)c1cc([N+](=O)[O-])ccc1S2 (stereo not given)	-21.2%	/	0.6%	-19.3%	/	2.1%	5.7%	-38.3%
Cc1nc2ccc(NC(=O)c3ccc(Br)o3)cc2s1	12.8%	/	-4.8%	0.0%	/	-3.8%	/	?
COc1cccc(N2C(=O)CC(N3CCC(C(N)=O)(N4CCCCC4)CC3)C2=O)c1 (stereo not given)	-12.8%	1.4%	-37.3%	12.9%	1.4%	7.4%	-19.1%	19.9%
Cc1nn(C)c(C)c1/C=N/N=C1\CCC2C3CCc4cc(O)ccc4C3CCC12C (stereo not given)	8.6%	0.0%	-6.0%	-27.2%	15.9%	-11.7%	3.6%	?
c1cn(CCCNC2CCCCCCC2)cn1	1.4%	/	/	-19.2%	/	-0.6%	/	-10.5%
CCN(CC(=O)N1CCN(c2ccccc2)CC1)S(=O)(=O)c1ccc(C)cc1	-6.4%	-4.8%	17.2%	-22.6%	-4.5%	-5.3%	2.6%	-0.4%
Cc1cc(S(=O)(=O)N2CCN=C2c2ccccc2)c(C)cc1Cl	-1.7%	-3.7%	1.7%	-18.9%	-7.3%	-1.5%	-9.2%	-3.0%
CCOc1ccc(NC(=O)CSc2nncn2C)cc1	-14.5%	/	-0.4%	28.3%	/	-5.3%	4.9%	?
O=C1OC(Nc2nc(-c3ccc(F)cc3)cs2)c2ccccc21 (stereo not given)	5.0%	/	-0.1%	-19.2%	/	1.4%[46.1 µM]	0.1%	?
C[C@H](NC(=O)c1nc[nH]c1C(=O)N[C@@H](Cc1ccccc1)C(=O)OCc1ccccc1)c1ccccc1	13.1%	/	0.0%	-20.6%	/	/	?	/
O=C(N1CCN(c2cccc(Cl)c2)CC1)C1(c2cccs2)CCOCC1	4.4%	-6.7%	-28.7%	35.5µM*	?	?	-5.5%	?
O=C(NCc1ccccc1Cl)c1ccc2nnsc2c1	-5.0%	/	-1.2%	13.3%	/	-24.1%[46.1 µM]	-10.2%	?
(cont.)
SMILES	RE007 growth inh	Cruzain inh Det	SARS PLpro yeast	StopGo reporter	Cruzain inh noDet	Lassa entry inh	NS1 function inh	MARV entry inh
Clc1ccc(-c2nnc(-c3cccc4ccccc34)o2)cc1	-5.5%	/	/	19.3%	/	?	/	?
CCSc1nn(CC(=O)Nc2cccc(Cl)c2)c(N)c1S(=O)(=O)c1ccc(OC)cc1	/	-2.1%	/	-1.5%	5.0%	-22.8%[46.1 µM]	/	/
CC1CCCCC1NCC(=O)Nc1ccccc1-c1ccccc1 (stereo not given)	-7.1%	-3.8%	18.4%	-26.8%	-3.7%	-7.6%	5.0%	-12.1%
NNC(=O)CCc1nc2ccc(O)cc2[nH]1	-10.0%	/	1.5%	0.5%	/	-11.1%	/	11.7%[46.1 µM]
COc1ccc2oc(=O)c(C(C)=O)cc2c1	-14.4%	0.9%	8.9%	/	-2.8%	?	3.0%	4.3%
CS(=O)(=O)Cc1cccc(C(=O)NN(c2ccccc2)c2ccccc2)c1	2.8%	/	-3.8%	-11.7%	/	?	-6.6%	15.0%[46.1 µM]
